# Autofluor counter: compound fluorescence in toxin protease inhibitor counterscreen | compound autofluorescence counterscreen, microsphere flow cytometry; hits give high values | fluorescence intensity (concentration not given with the values) | AID 624483 | 3.1% of 360,000 active;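 active = at least 3 SD above the mean of all compounds, about 16000 in these data; inconclusive = too few beads counted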;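 note: 100 nL of 1 mM stock went into each well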
# Mtb hypoxia inh: PubChem AID 1159583; fluorescence inhibition, % (test concentration not listed); M. tuberculosis hypoxia-regulated fluorescent reporter, fluorescence; 0.1% of 300,000 active;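 active = 35 to 45% if threefold the growth effect, above 45% if 1.5-fold the growth effect; inactive = the rest, general growth blockers included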;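 note: wells of about 50 µL received 100 nL stock; 0% = vehicle wells and 100% = reference inhibitor wells; whole bacteria with a GFP reporter of the hypoxia response; strong numbers were not always called active; many hits fall short of the cut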
# Sa RN4220 lethal: growth inhibition of S. aureus RN4220, primary screen, OD600. 16 h. inhibition, % (no concentration beside the values). 0.33% of 330,000 active;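 active = z-score of -3 or lower and OD600 up to 0.18 on both plates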;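 note: plate controls were untreated cells for no effect and reference antibiotic for full effect; stock transfer was 100 nL into about 80 µL; one replicate is shown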
# PrP UTR inh: inhibition of PrP 5' UTR reporter expression; cell-based PrP 5' UTR mRNA reporter, plate reader; inhibition, % (concentration not given with the values); 0.35% of 340,000 active; AID 488862, 2010;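 active = every replicate at 50% or more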;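 note: 0 = median of the neutral control wells; tested in H4 reporter cells; numbers are from one replicate; inactives centre near -14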
# ugtP null kill: growth inhibition of ugtP-null S. aureus, primary screen, RN4220 ugtP deletion, OD600 | 16 h; some inactives read as strong as hits | growth inhibition, % (test concentration not listed) | 0.54% of 330,000 active;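 active = z-score under -3 and OD600 up to 0.15 on both plates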;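 note: plate controls were untreated wells for no effect and antibiotic for full effect; wells of about 80 µL received 100 nL stock; the first replicate is given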
# BJeLR viability: MLPCN primary cell-based screen for lethality selective to Ras in HRASV12 cells; BJeLR (HRASV12) viability, CellTiter-Glo ATP luminescence, 48 h; reference of the scale not given here; inhibition, % (concentration not given with the values); 0.17% of 300,000 active; AID 1554, 2009;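 active = replicate mean above 50%; inconclusive = above 50% but judged a plate artefact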;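 note: 50 nL library stock added to about 25 µL; numbers are from one replicate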
# Mtb hypoxia inh growth: recorded beside Mtb hypoxia inh, whose call it bears; growth inhibition, %; measured here: M. tuberculosis growth (absorbance);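 0% = vehicle and 100% = reference antibiotic; read after six days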
# Active calls of the source: *; ? = inconclusive; · = not tested or not shown.
SMILES,Autofluor counter,Mtb hypoxia inh,Mtb hypoxia inh growth,Sa RN4220 lethal,PrP UTR inh,ugtP null kill,BJeLR viability
COc1ccc2nnc(-c3ccc(C(F)(F)F)cc3)n2n1,3372,7,8,6.6,-22,9,3
CC(=O)Nc1ccc(OCC(O)Cn2nc(C)c(C(C)=O)c2C)cc1 (configuration not stated),11126,0,-5,1.3,-33,3,-1
CN(c1ccc(OCC(=O)NCCc2ccccc2)cc1)S(=O)(=O)c1ccc(Cl)cc1,·,0,5,-6.8,-7,-7,3
Cc1ccc(CN(C(=O)Cn2nnc3ccccc32)C(C(=O)NCc2ccco2)c2ccc(C)o2)cc1 (configuration not stated),2963,4,-1,-14,-11,-14,-10
C/C(=N\O)C(=O)NCC1CCNCC1,4629,·,·,·,-23,·,4
Cc1ccc(C(=O)NCC(c2ccco2)N2CCc3ccccc3C2)cc1C (configuration not stated),5577,-5,-3,0.1,-31,5,7
Cc1ccc(CN2CC(C(=O)OCc3ccccc3Cl)CC2=O)cc1 (configuration not stated),·,4,0,2.7,-6,5,6
CCOC(=O)c1[nH]c2ccccc2c1NC(=O)CN(C)C,4172,·,·,7.7,-5,16,-2
COC(=O)c1cc(NC(=O)c2cccnc2)cc(C(=O)OC)c1,3764,-4,-8,2.2,-23,-6,-1
CNC(=O)c1[nH]cnc1C(=O)Nc1ccccc1C,3324,18,16,-11,0,-8,-1
COc1ccc(CN(C)C(=O)c2sccc2-c2ccccc2)c(OC)c1,5853,9,-5,3.4,-20,1,4
O=C(CNC(=O)c1ccc2c(c1)OCO2)NCCOc1ccc(Cl)cc1,·,-2,6,7.2,-9,-2,·
CCN(CC(=O)Nc1c(F)cccc1F)C(=O)CNC(=O)C1CCCCC1,?,8,-2,4.0,-9,6,6
C=C1C(=O)O[C@@H]2C[C@@H](C)[C@@H]3C4OC4C(=O)[C@@]3(C)[C@@H](O)[C@H]12 (some centres not stated),3084,·,·,·,-58,·,37
Cc1ccc(CONC(=O)/N=C/N(C)C)cc1,8236,·,·,·,-21,·,-2
CCCS(=O)(=O)N1CCCC(C(=O)NC2CCCCC2)C1 (configuration not stated),2766,9,1,5.4,-21,6,4
CCOC(=O)/C(=C/C=C1\Sc2cc(OCC)c(OCC)cc2N1CC)C(C)=O,23889*,·,·,·,-26,·,-8
CC(C)(C)N1C(=O)C2C(c3ccc(Br)cc3)N3C(=O)N(c4cccc(Cl)c4)C(=O)[C@@]3(Cc3ccccc3)C2C1=O (some centres not stated),·,4,7,2.8,·,-41,·
CC(C)c1ccc(C(=O)Nc2ccc(CN3CCOCC3)cc2)cc1,2847,5,-9,0.8,-9,5,10
O=C(COC(=O)CCc1c[nH]c2ccccc12)Nc1ccccc1C(F)(F)F,6303,·,·,6.3,-24,4,·

# Fetched one by one from the list above, 2 records:
SMILES,Autofluor counter,Mtb hypoxia inh,Mtb hypoxia inh growth,Sa RN4220 lethal,PrP UTR inh,ugtP null kill,BJeLR viability
COc1ccc(CN(C)C(=O)c2sccc2-c2ccccc2)c(OC)c1,5853,9,-5,3.4,-20,1,4
CCN(CC(=O)Nc1c(F)cccc1F)C(=O)CNC(=O)C1CCCCC1,?,8,-2,4.0,-9,6,6

# 15 successive entries from above:
SMILES,Autofluor counter,Mtb hypoxia inh,Mtb hypoxia inh growth,Sa RN4220 lethal,PrP UTR inh,ugtP null kill,BJeLR viability
Cc1ccc(C(=O)NCC(c2ccco2)N2CCc3ccccc3C2)cc1C (configuration not stated),5577,-5,-3,0.1,-31,5,7
Cc1ccc(CN2CC(C(=O)OCc3ccccc3Cl)CC2=O)cc1 (configuration not stated),·,4,0,2.7,-6,5,6
CCOC(=O)c1[nH]c2ccccc2c1NC(=O)CN(C)C,4172,·,·,7.7,-5,16,-2
COC(=O)c1cc(NC(=O)c2cccnc2)cc(C(=O)OC)c1,3764,-4,-8,2.2,-23,-6,-1
CNC(=O)c1[nH]cnc1C(=O)Nc1ccccc1C,3324,18,16,-11,0,-8,-1
COc1ccc(CN(C)C(=O)c2sccc2-c2ccccc2)c(OC)c1,5853,9,-5,3.4,-20,1,4
O=C(CNC(=O)c1ccc2c(c1)OCO2)NCCOc1ccc(Cl)cc1,·,-2,6,7.2,-9,-2,·
CCN(CC(=O)Nc1c(F)cccc1F)C(=O)CNC(=O)C1CCCCC1,?,8,-2,4.0,-9,6,6
C=C1C(=O)O[C@@H]2C[C@@H](C)[C@@H]3C4OC4C(=O)[C@@]3(C)[C@@H](O)[C@H]12 (some centres not stated),3084,·,·,·,-58,·,37
Cc1ccc(CONC(=O)/N=C/N(C)C)cc1,8236,·,·,·,-21,·,-2
CCCS(=O)(=O)N1CCCC(C(=O)NC2CCCCC2)C1 (configuration not stated),2766,9,1,5.4,-21,6,4
CCOC(=O)/C(=C/C=C1\Sc2cc(OCC)c(OCC)cc2N1CC)C(C)=O,23889*,·,·,·,-26,·,-8
CC(C)(C)N1C(=O)C2C(c3ccc(Br)cc3)N3C(=O)N(c4cccc(Cl)c4)C(=O)[C@@]3(Cc3ccccc3)C2C1=O (some centres not stated),·,4,7,2.8,·,-41,·
CC(C)c1ccc(C(=O)Nc2ccc(CN3CCOCC3)cc2)cc1,2847,5,-9,0.8,-9,5,10
O=C(COC(=O)CCc1c[nH]c2ccccc12)Nc1ccccc1C(F)(F)F,6303,·,·,6.3,-24,4,·

# The results go on.
SMILES,Autofluor counter,Mtb hypoxia inh,Mtb hypoxia inh growth,Sa RN4220 lethal,PrP UTR inh,ugtP null kill,BJeLR viability
COc1ccccc1C(=O)NN=C1CCN(Cc2ccccc2)CC1,2319,4,-1,2.9,-36,-8,5
C[n+]1ccccc1/C=C/c1ccc2ncccc2c1,4271,8,0,-1.9,-21,4,-3
Cc1ccc(CSc2nnc(-c3ccccn3)n2N)cc1,6185,9,10,2.6,·,1,3
Cc1ccccc1OCC1Cn2c(nc3c2c(=O)n(C)c(=O)n3C)O1 (configuration not stated),3884,13,13,-0.1,-26,14,-2
CC1C(=O)N(Cc2ccc(F)cc2)c2ccccc2N1C(=O)c1c(F)cccc1F (configuration not stated),3455,1,-2,3.3,-16,-3,10
OC(CNCCCN1CCCCC1)COc1ccccc1 (configuration not stated),2189,·,·,4.2,-11,-1,-7
CC1=NN(c2cccc(C(=O)O)c2)C(=O)/C1=C\C=C\c1ccco1,3074,-4,8,5.6,-19,-4,5
Cc1cccc(CC2SC(=NN=Cc3ccco3)N(c3ccccc3)C2=O)c1 (configuration not stated),·,7,1,3.6,·,3,·
O=C1CN(C(=O)c2ccco2)C(c2ccc(F)cc2)c2cc(Cl)ccc2N1 (configuration not stated),10195,-2,-4,0.8,-16,0,-24
O=C(Nc1cccc(F)c1)c1ccccc1-c1ccccc1,2476,-1,2,8.5,-10,0,1
COc1ccc(C2C3=C(CC(C)(C)CC3=O)Nc3n[nH]c(C)c32)cc1 (configuration not stated),2907,3,9,-5.8,-12,-9,0
O=C(Nc1ccccc1)C1C2CCCCC21 (configuration not stated),3864,7,9,-3.0,-15,-4,-6
COc1ccc2c(c1)c(CC(=O)Nc1ccc(C(C)=O)cc1)c(C)n2C(=O)c1ccc(Cl)cc1,2522,-3,0,-12,-11,-7,2
CCCN1Cc2cccc(C(=O)NC3CCCC3)c2C1=O,3243,·,·,4.2,-31,4,4
CCOC(=O)Cn1c(N2CCCCCC2)nc2c1c(=O)[nH]c(=O)n2C,2505,16,2,14,-9,18,12
O=C(CN1C(=O)CCS(=O)(=O)c2ccccc21)NCc1ccc2c(c1)OCO2,2854,10,8,-9.3,-18,-6,-3
Cc1c(CCC(=O)NCCCn2ccnc2)c(=O)oc2cc3occ(C(C)(C)C)c3cc12,5647,9,14,-0.9,0,-6,-2
Cn1cccc1C=NNC(=O)c1cccc(OC(F)(F)C(F)F)c1,·,4,-1,5.4,·,-4,·
COc1ccc(C(=O)Nc2cccc3nc(C)ccc23)cc1OC,3722,0,-2,5.4,-7,3,-3
Cn1c(=O)n(C)c2cc(NC(=O)c3ccccc3NS(C)(=O)=O)ccc21,4177,12,1,0.6,-26,3,-5
COC(=O)C1CC(O)CN1C(=O)Nc1ccccc1 (configuration not stated),2566,6,4,2.1,-18,-9,0
Cn1cccc1/C=C1\C(=O)NC(=O)N(Cc2ccccc2)C1=O,4696,10,-2,2.6,-12,2,9
Cc1cccc(Oc2ncc(-c3ccc(Cl)cc3)cn2)c1,2165,·,·,0.3,-56,7,20
CC1CCCCN1C(=S)NC(=O)c1cccs1 (configuration not stated),4079,10,-1,4.9,-13,6,-6
Cc1oc(CC(C)C)c(CN2CCCC2)c1C(=O)O,3205,·,·,0.6,-12,2,4
Cc1cc(C)c2[nH]c(C)c(CN3CCCCCC3)c(=O)c2c1,3870,0,14,3.0,-6,-1,-1
Cc1ccc(CCC(=O)Nc2ccccc2F)s1,1918,-9,2,-3.7,-117,-4,-3
CC(C)OC(=O)Cn1nc(C(c2ccccc2)c2ccccc2)oc1=O,4175,2,11,2.2,-36,7,10
COc1ccc(NC(=Nc2nc(C)cc(C)n2)NC(=O)c2ccccc2)cc1,·,11,-5,4.6,·,2,·
C=CCNc1oc(-c2cccc3ccccc23)nc1C#N,5476,18,8,9.6,-22,-8,-1
O=C(CCCn1c(=O)[nH]c2ccccc2c1=O)Nc1ccc(F)cc1,3254,-4,9,4.6,-23,5,8
COc1cc(OC)cc(C(=O)NN(CCC#N)C2=NS(=O)(=O)c3ccccc32)c1,3347,15,5,4.2,-26,10,-2
CN1CCN(CCC(=O)Nc2ccc(Br)cc2)CC1,5319,-12,6,3.3,-12,-7,2
CN=C1SC(CC(=O)Nc2ccc(C(C)=O)cc2)C(=O)N1C (configuration not stated),4817,·,·,0.4,-4,2,15
COc1ccc(CCNC(=O)C2CCN(C(=O)c3ccccc3)CC2)cc1,·,-2,15,-3.1,·,1,2
O=C(O/N=C\c1ccc(N2CCCCC2)c([N+](=O)[O-])c1)c1cccc(Cl)c1,2682,·,·,·,-5,·,0
O=C1C2C3C=CC(CC3)C2C(=O)N1c1ccc(Cl)cc1Cl (configuration not stated),4588,21,5,4.7,-14,0,4
CCOc1ccc(NC(=O)c2[nH]c(C)c(C(C)=O)c2C)cc1,7115,9,8,-1.6,-24,2,3
Cc1ccc(NC(=O)CSc2nccn(-c3ccc4c(c3)OCCO4)c2=O)cc1,4763,3,6,-0.1,-19,1,2
Nn1c(SCc2csc(-c3ccccc3)n2)nnc1-c1cccs1,6557,8,7,8.6,-7,10,-10
Cc1cc(C)n(C(=O)CCC(=O)NCc2ccccc2)n1,10636,11,5,4.8,-24,8,7
CC(=O)NS(=O)(=O)c1ccc(N=NN2CCCCCC2)cc1,3357,-5,0,1.0,-20,1,6
O=C(Oc1ccc(Br)cc1C(=S)N1CCOCC1)c1ccccc1,3627,-2,7,1.5,-4,15,0
Cc1ccc(/C=C/C(=O)Nc2cccc3cccnc23)o1,2688,7,-1,2.6,-26,2,-4
O=C(NC1(Cc2ccccc2)CCN(CCCc2ccccc2)C1=O)c1ccccc1 (configuration not stated),4112,13,14,0.3,10,1,·
CC(C)c1cc(C(=O)NN=Cc2c[nH]c3ccccc23)n[nH]1,·,6,9,3.6,·,10,·
OCCOc1cccc(CN2CCC(CO)(CCOc3ccccc3)CC2)c1,2559,-7,-9,11,-20,-4,2
CCCN1CCC(=O)N([C@H](CSc2ccccc2)Cc2ccccc2)CC1,3909,·,·,·,0,·,-1
Cn1nnnc1Sc1ncnc2scc(-c3cccc(S(C)(=O)=O)c3)c12,3711,26,20,5.8,-3,1,·
O=C(COC(=O)Cc1c(Cl)cccc1Cl)Nc1ccc(OC(F)(F)F)cc1,2090,1,8,1.3,-2,-9,-2
# (next part)
SMILES,Autofluor counter,Mtb hypoxia inh,Mtb hypoxia inh growth,Sa RN4220 lethal,PrP UTR inh,ugtP null kill,BJeLR viability
Nc1nnc(SCC(=O)N2CCc3ccccc32)n1-c1ccccc1,9441,-11,4,0.0,-14,-5,7
Cc1ccsc1C=C(C(=O)c1ccc(OC(C)C)cc1)c1nc2ccccc2o1,·,-3,4,5.1,·,10,·
O=C(O)C1=C[C@H](c2ccc3c(c2)OCO3)C[C@H](OCCCCO)O1,3840,·,·,·,-13,·,-7
O=C(CN(Cc1cccs1)C(=O)CCC(=O)Nc1ccccn1)NCc1ccccc1,2144,6,-1,5.6,-8,1,3
CCn1c2ccccc2c2nnc(NN)nc21,2203,-2,2,9.0,-22,3,-6
